Screening results (PubChem)
StopGo reporter – FMDV 2A StopGo reporter, luciferase signal; human cells with a luciferase reporter of 2A StopGo recoding; control for the full effect not named in the record; Potency, µM (highest dose often 57.9 µM), inactives show at the highest dose signal change, negative = less light; 1.2% of 410,000 active; AID 1159524; active = well fitted falling curve with a large enough effect; inconclusive = small, poorly fitted or top-dose-only effect; inactive = no such curve, though single readings can be large or run the other way; tested in HEK293T cells; note: % is set by controls: 0 for no effect and ±100 for the full control effect; nearly all actives have a fitted effect of over 45% in size; luciferase light after 4 h
SARS PLP yeast – blocks SARS-CoV papain-like protease in a yeast assay; S. cerevisiae expressing SARS-CoV PLpro, growth rescue; control for the full effect not named in the record; Potency, µM (top dose mostly 32.9 µM), inactives show at the top dose activity, positive = growth rescue; 0.19% of 330,000 active; AID 485353; active means well fitted rising curve with a large enough effect; inconclusive means small, poorly fitted or top-dose-only effect; inactive means no such curve, though single readings can be large or run the other way; note: 0% is about no effect; nearly all actives have a fitted effect of over 55% in size; growth read by luminescence after 48 h
RE007 growth inh – less growth of the S. pombe RE007 Vpr strain | Potency, µM (top dose mostly 92.2 µM), for inactives: at the top dose activity change, negative = less growth | 0.21% of 360,000 active | AID 651644 | S. pombe RE007 Vpr strain, BacTiter-Glo ATP luminescence, 24 h; control for the full effect not named in the record; active = well fitted falling curve with a large enough effect; inconclusive = small, poorly fitted or top-dose-only effect; inactive = no such curve, though single readings can be large or run the other way;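 note: % is set by controls: 0 for no effect and ±100 for the full control effect; nearly all actives have a fitted effect of over 50% in size; the assay follows cell death caused by Vpr and the record does not say whether a fall means rescue or toxicity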
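Fission yeast RE007 carrying one integrated HIV-1 vpr copy, seeded at OD 0.01 in PMG+AL medium with 23 nL pinned compound. Grown 24 h at 30 degrees; viability read by BacTiter-Glo luminescence after 5 min.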
Active calls of the source: *; u = inconclusive; [ ] = another dose, or the depositor's remark. Potency is the fitted concentration of half-maximal effect. This is a subset; count on the stated rates, not on these rows.

Structure	StopGo reporter	SARS PLP yeast	RE007 growth inh
COc1ccc(/[N+]([O-])=C/c2ccoc2)cc1	42%[activator]	0%	-5%
CC(=O)O[C@@]1(C)C[C@@H](O)[C@]2(O)C=CO[C@@H](O[C@@H]3O[C@H](CO)[C@@H](O)[C@H](O)[C@H]3O)[C@@H]21	-19%	0%	-7%
CC1Nc2ncnc(N3CCN(c4ccccc4)CC3)c2N(Cc2ccc(Cl)cc2)C1=O (stereo not drawn)	-24%	6%	-1%
CCN(C[C@H]1N[C@@](C)(C(=O)OC)[C@H]2C(=O)N(Cc3ccccc3)C(=O)[C@@H]12)C(=O)Nc1ccccc1	-18%	1%	-24%
CCC(CC)NC(=O)C1CCN(c2ccc(S(=O)(=O)N3CCOCC3)cc2[N+](=O)[O-])CC1	-6%	-1%	-11%
CCN(C[C@H]1N[C@@](Cc2ccccc2)(C(=O)OC)[C@H]2C(=O)N(Cc3ccccc3)C(=O)[C@@H]12)S(=O)(=O)c1ccc(OC(F)(F)F)cc1	-17%	1%	23%
COC(=O)C[C@H](NC(=O)Cn1cnc2c(SC)nc(N)nc21)C(=O)OC	-9%	2%	-3%
NS(=O)(=O)c1ccc(CCNC(=O)COC(=O)/C=C/c2ccc(Cl)cc2)cc1	-18%	1%	0%
COc1cccc(Oc2ccc(C(F)(F)F)cc2NC(=O)CN2C(=O)NC3(CCCC3)C2=O)c1	-19%	5%	-4%
CC[C@]12c3[nH]c4ccccc4c3CCN1C(=O)C(CC(=O)NCCCn1ccnc1)C[C@@H]2C(=O)N1CCN(C(=O)C2CC2)CC1 (stereo partly drawn)	-15%	3%	-19%
O=C(CSc1ccc2ccccc2n1)NCCCN1CCCC1=O	3%	-5%	6%
C=CC[C@@H](CC(=O)N[C@@H](CO)Cc1ccccc1)C(=O)N[C@H](COC(=O)[C@@H](CC=C)CC(=O)OC(C)(C)C)Cc1ccccc1	0%	0%	-17%
C=CC[C@@H](CC(=O)NCCO)C(=O)N[C@@H](COC(=O)[C@@H](CC=C)Cc1ccc(F)cc1)Cc1ccccc1	0%	7%	11%
Cc1ccc(CN2C(=O)C(=O)c3cc(C)ccc32)cc1	9%	-12%	-12%
COc1cc(C(=S)N2CCOCC2)ccc1OC(=O)/C=C/c1ccco1	-15%	2%	3%
O=C(CSc1nnc2ccccn12)NC(=O)c1ccccc1	-9%	1%	16%
O=C(COC(=O)C1CC2CCCC(C1)C2=O)Nc1ccc(F)c(Cl)c1 (stereo not drawn)	3%	-4%	3%
CCc1ccc(Nc2nnc(SCC(=O)NC(=O)CN3CCCC3=O)s2)cc1	18%	-2%	15%
COc1cc2ccccc2cc1C(=O)NC1CCC(C)CC1 (stereo not drawn)	62%[activator]	-7%	5%
CCN(CC)S(=O)(=O)c1ccc(N2CC(C(=O)NCCc3ccc(Cl)cc3)CC2=O)cc1 (stereo not drawn)	37%[activator]	-5%	8%
C[C@@]12C(=O)Nc3ccccc3C(=O)N1[C@H]1c3cc(Br)ccc3OC[C@@H]1[C@@H]2c1ccccc1	u	0%	6%
O=C(CSc1nnc(-c2ccc(F)cc2)c2ccccc12)NCC1CCCO1 (stereo not drawn)	-24%	1%	2%
COCc1ccc(-c2ccc3c(c2)c(C#Cc2ccsc2)c(-c2cc(OC)cc(OC)c2)n3C)cc1	-14%	7%	-4%
CC(=O)C[C@@H](O)CC(=O)[C@@H]1OC(=O)CCCCCCCc2ccccc21	-5%	1%	-3%
CSc1ccc(NC(=O)CSc2nc3[nH]c(=O)cc(O)c3s2)cc1	-6%	15%	2%
CCN(Cc1ccccc1)C(=O)COC(=O)c1cc(S(=O)(=O)Nc2ccccc2OC)ccc1O	-7%	2%	-7%
CCN(c1ccc(C(=O)CSc2nnc(C3CC3)n2C2CC2)cc1)S(C)(=O)=O	-1%	0%	3%
O=C(Nc1cccc(S(=O)(=O)Nc2ccc(Cl)cc2)c1)c1ccccn1	11%	1%	-7%
CC(=O)Nc1ccc2oc(-c3ccccc3)nc2c1	43%[activator]	-4%	-12%
COc1cccc(-c2c(-c3cc(OC)cc(OC)c3)n(C)c3ccc(Br)cc23)c1	-8%	0%	9%
CCCC[C@@H]1C=C(C(=O)O)[C@H](c2ccc(Cl)c(Cl)c2)N1S(=O)(=O)c1ccc(C)cc1	-15%	2%	4%
Cc1cccc(OCCC(=O)OCc2csc(CC(=O)Nc3ccccc3C)n2)c1	3%	0%	4%
Cc1ccsc1CN(C)C(=O)CN1C(=O)NC(c2ccccc2)(c2ccccc2)C1=O	-29%	0%	10%
O=C(CN1C(=O)NC2(CCCCC2)C1=O)Nc1ccc(Cl)c(S(=O)(=O)N2CCOCC2)c1	u	-2%	1%
C#CCOCCOCCOCCNc1nc(N2CCN(C(=O)CCCCCCCCCCNC(=O)Cn3cc(CCCCCN)nn3)CC2)nc(N2CCN(C(=O)CCCCCCCCCCNC(=O)[C@H](CO)n3cc(CCCSC)nn3)CC2)n1	-28%	1%	5%
O=C(O)c1cc(S(=O)(=O)N2CCN(S(=O)(=O)c3ccc4ccccc4c3)CC2)ccc1Br	3%	4%	-4%
CCN(CCS(=O)(=O)c1ccc(Br)cc1)Cc1nc2ccccc2c(=O)[nH]1	-26%	-4%	-2%
O=c1[nH]c(SCc2ccc(Cl)cc2)nc2[nH]ncc12	4%	-1%	5%
Cc1ccccc1S(=O)(=O)N1[C@@H](c2cccc(Cl)c2)C(C(=O)O)=CC[C@H]1c1ccc(Cl)cc1	-23%	1%	-15%
COCCNC(=O)c1cccc2c1C(=O)c1ccc(N3CCOCC3)cc1S2(=O)=O	-4%	-5%	10%
Nc1nccnc1C(=O)OCC(=O)NC1CCCc2ccccc21 (stereo not drawn)	-9%	1%	7%
CCCc1cc(=O)[nH]c(SCC(=O)Nc2ccc(C)c(S(=O)(=O)N3CCCCC3)c2)n1	-7%	-9%	-10%
Cc1ccc(S(=O)(=O)NCCC(=O)NCc2ccc(Cl)cc2)cc1C	20%	5%	10%
CCn1c(=O)c(C(=O)CN(C)CC(=O)Nc2cccc(F)c2)c(N)n(Cc2ccccc2)c1=O	u	-6%	-13%
Cc1cc(C)n2nc(C(=O)OCC(=O)N(C)CC(=O)Nc3ccc(F)cc3)nc2n1	-7%	1%	2%
C[C@H](CO)N1C[C@H](C)[C@H](CN(C)Cc2ccncc2)Oc2ccc(NC(=O)Nc3ccc(C(F)(F)F)cc3)cc2CC1=O	-15%	4%	-8%
c1ccc2c(C[C@@H]3CNCCN3CCCCC3CCCCC3)cccc2c1	-10%	0%	-5%
Cc1ccc(S(=O)(=O)NCCNS(=O)(=O)c2ccccc2Br)cc1	86%[activator]	-4%	8%
COC(=O)[C@]1(Cc2ccccc2)N[C@H](c2ccc(-c3cccc(Cl)c3)cc2)[C@@H]2C(=O)N(C)C(=O)[C@@H]21	0%	-7%	33%
COc1cc(NS(=O)(=O)c2ccc(NC(=O)/C=C/c3ccc([N+](=O)[O-])cc3)cc2)ncn1	-4%	-1%	11%
COc1ccc(OC)c2sc(NNC(=O)C3COc4ccccc4O3)nc12 (stereo not drawn)	-4%	0%	29%
CC(=O)c1c(C)[nH]c(C(=O)N2CCN(S(=O)(=O)c3ccc(C)cc3C)CC2)c1C	-26%	1%	2%
C[C@@]12CCC[C@H](O1)[C@@H]([C@H](O)c1ccccc1)O2	-17%	-3%	-4%
COc1ccc(S(=O)(=O)N(C)C[C@H]2Oc3ccc(NC(=O)Nc4c(C)noc4C)cc3C(=O)N([C@H](C)CO)C[C@@H]2C)cc1	-13%	10%	2%
CN(C(=O)COC(=O)c1ccc(CN2CCCC2=O)cc1)c1ccccc1	-15%	-4%	-11%
CCC(C)NC(=O)c1ccc(Cl)c(S(=O)(=O)Nc2ccccc2N2CCOCC2)c1 (stereo not drawn)	-1%	10%	-10%
C=CCn1c(SCC(=O)NCC2CCCO2)nc2sc(CC)cc2c1=O (stereo not drawn)	-22%	-1%	6%
COc1cccc(C(=O)NCc2ccc3[nH]c(C)cc3c2)c1	38%[activator]	0%	-4%
O=C(C[N+]1(CC#Cc2ccccc2)CCOCC1)c1ccccc1	-2%	1%	-16%
CNc1snc(C)c1C(=O)OC(C)C(=O)Nc1ccccc1 (stereo not drawn)	u	-4%	30%

The results go on.
Structure	StopGo reporter	SARS PLP yeast	RE007 growth inh
COc1ccc(NC(=O)COC(=O)CCC2CCCC2)c(OC)c1	-2%	-10%	0%
CC1CCCN(CC(O)COc2ccc(S(=O)(=O)N3CCCC3)cc2[N+](=O)[O-])C1 (stereo not drawn)	-21%	7%	-1%
CS(=O)(=O)Nc1ccccc1C(=O)OCC(=O)NC1CC1	0%	0%	-5%
Cc1cc(C(=O)NCC(=O)OCC(=O)NCC2CCCO2)ccc1[N+](=O)[O-] (stereo not drawn)	-14%	-4%	7%
CCOC(=O)c1c(C)[nH]c(C(=O)COc2ccc3ccc(=O)oc3c2)c1C	0%	-1%	1%
O=C(C1CCN(S(=O)(=O)c2ccccc2F)CC1)N1CCN(Cc2ccc3c(c2)OCO3)CC1	u	2%	-13%
CSc1nc(-c2ccccc2)nc(NC(=O)c2ccccc2)c1C(C)=O	u	0%	4%
Cc1noc(C)c1NC(=O)Nc1ccc2c(c1)C(=O)N([C@H](C)CO)C[C@H](C)[C@@H](CN(C)S(=O)(=O)c1c(C)noc1C)O2	-10%	9%	20%
